E coli growth: E. coli growth inhibition | Escherichia coli growth, OD600, 23 h; active compounds read low | OD600 absorbance (concentration not given with the values) | hit rate 0.21% among 330,000 | AID 1053175;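 active = OD600 absorbance below the run mean of sample wells minus 3.6 SD, in any replicate, cut at about 0.56 in these data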;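 also: stock transfer was 300 nL into about 60 µL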
FGF22 binding: FGF22 (human) thermal shift binding; recombinant FGF22 thermal shift, SYPRO orange fluorescence; percent of sucrose octasulfate shift, DMSO zero; calls only at 9.99 µM; hit rate 1.5% among 340,000; AID 651658;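 active = melting point raised past a set limit in the mean and every replicate; three in four hits are not shown here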
ALR H2O2 inh: blocks human ALR sulfhydryl oxidase activity. P55789. purified ALR, DTT oxidation, H2O2 HRP-luminol luminescence. inhibition, % (concentration not given with the values). hit rate 3.8% among 290,000. AID 485317;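 active = mean and each replicate at 75% or more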;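 also: stock transfer was 7.5 nL into about 7.5 µL; 0% = neutral wells and 100% = wells with inactivated enzyme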
Target sequence (P55789 whole entry, looked up): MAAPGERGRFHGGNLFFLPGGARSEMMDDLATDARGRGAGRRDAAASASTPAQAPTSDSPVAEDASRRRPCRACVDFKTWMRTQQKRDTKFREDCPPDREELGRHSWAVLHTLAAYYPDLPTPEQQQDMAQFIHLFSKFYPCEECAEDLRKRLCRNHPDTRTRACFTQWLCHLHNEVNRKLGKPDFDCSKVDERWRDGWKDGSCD
B2AR ag: agonists of human beta-2 adrenergic receptor inducing internalization. P07550. Am2.2-beta2AR cells, FAP receptor internalization, flow cytometry; reference of the scale not given here. response, % (test concentration not listed). hit rate 0.43% among 340,000. AID 504454;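 active = response above a set limit, near 3 SD of response in nonfluorescent compounds, cut at about 42% in these data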;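 also: stock transfer was 100 nL into about 11 µL; a reference agonist was the positive control; negative values mostly stem from fluorescent compounds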
Target sequence (P07550 whole entry, looked up): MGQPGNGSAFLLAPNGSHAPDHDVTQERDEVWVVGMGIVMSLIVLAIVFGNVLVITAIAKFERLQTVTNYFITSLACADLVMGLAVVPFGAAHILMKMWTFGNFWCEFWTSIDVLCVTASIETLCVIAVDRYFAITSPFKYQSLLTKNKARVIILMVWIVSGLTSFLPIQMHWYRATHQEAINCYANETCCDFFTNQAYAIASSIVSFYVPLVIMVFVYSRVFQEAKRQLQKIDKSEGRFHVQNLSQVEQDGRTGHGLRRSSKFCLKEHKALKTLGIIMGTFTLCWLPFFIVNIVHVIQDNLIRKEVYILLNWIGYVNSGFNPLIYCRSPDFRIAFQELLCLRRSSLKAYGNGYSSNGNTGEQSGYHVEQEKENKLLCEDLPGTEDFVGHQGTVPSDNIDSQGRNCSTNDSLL
Ecoli rRNA inh: inhibitors of bacterial rRNA selective over humanized ribosomes | E. coli WT GFP vs humanized-ribosome RFP mutants, fluorescence, 24 h; active compounds read low; DMSO median 0, no signal -100 | GFP signal change (wild-type ribosome), % (no concentration beside the values) | hit rate 1.6% among 350,000;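 active = significant combined selectivity score with lowered wild-type GFP, culture density cut under 30%, mutant RFP and density less affected; inactive = any of these conditions unmet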; also: one replicate is shown; some compounds called inactive have numbers as strong as hits
HNF4A DNA FP: change in binding of human HNF4 alpha to DNA; P41235; HNF4a-FITC DNA binding, fluorescence polarization, 1 h; activity change, % at 10 µM; hit rate 0.3% among 360,000; AID 1224865; in the data active = activity change above about 30%, passing the limit was not always enough;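 also: controls were the assay level and a saturating level of protein; the project sought stronger binding though the title names inhibitors; some compounds called inactive have numbers as strong as hits; positive values seem to mean higher polarization but the record does not say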
Target sequence (P41235 whole entry, looked up): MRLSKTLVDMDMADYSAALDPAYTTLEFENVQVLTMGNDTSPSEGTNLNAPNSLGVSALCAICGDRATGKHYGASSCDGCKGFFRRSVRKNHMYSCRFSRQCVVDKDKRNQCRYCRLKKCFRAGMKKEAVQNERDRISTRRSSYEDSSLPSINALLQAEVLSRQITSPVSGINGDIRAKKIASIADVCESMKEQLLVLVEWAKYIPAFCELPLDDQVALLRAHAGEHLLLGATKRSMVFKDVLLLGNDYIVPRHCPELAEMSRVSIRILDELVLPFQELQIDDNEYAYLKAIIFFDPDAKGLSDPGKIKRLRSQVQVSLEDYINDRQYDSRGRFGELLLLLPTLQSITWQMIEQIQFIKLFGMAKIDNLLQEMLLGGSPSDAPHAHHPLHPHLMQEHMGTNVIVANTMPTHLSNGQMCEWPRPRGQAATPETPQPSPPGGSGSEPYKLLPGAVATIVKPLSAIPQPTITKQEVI
UCH37 inh: inhibitors of human deubiquitinating enzyme UCH37; AID 588478; purified proteasome/UCH37, Ub-AMC cleavage fluorescence; Q9Y5K5; hit rate 0.33% among 330,000; inhibition, % (test concentration not listed);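 active = mean of two replicates above 20%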;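 also: 0% = compound-free wells with enzyme and 100% = wells lacking proteasome; stock transfer was 100 nL into about 20 µL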
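Material: Human UCH37 enzyme supplied as purified proteasome complex | Schedule: 30 min compound-proteasome preincubation then 25 min substrate reaction, room temperature | Detection: AMC fluorescence from Ub-AMC cleavage, excitation 355 nm, emission 460 nm | Benchmarks: Wells without proteasome as full block, compound-free enzyme plus substrate as uninhibited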
Ecoli rRNA inh OD600: also measured in Ecoli rRNA inh; calls as there; OD600 change, %; measured here: OD600 growth;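 optical density of the mix in the first replicate; 0 = DMSO median and -100 = no signal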
Ecoli rRNA inh RFP: recorded beside Ecoli rRNA inh, whose call it bears; RFP signal change, %; measured here: RFP humanized mutant strains;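 first replicate; 0 = DMSO median and -100 = no signal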
Numbers without * were called inactive; i = inactive; . = no result given; + = active, no number. A portion of the library; the hit share may differ from the screen's.

nr | Structure | E coli growth | FGF22 binding | ALR H2O2 inh | B2AR ag | Ecoli rRNA inh | Ecoli rRNA inh OD600 | Ecoli rRNA inh RFP | HNF4A DNA FP | UCH37 inh
1 | C=CCOC(=O)C1=C[C@H](c2cn(C(C)=O)c3ccccc23)C[C@H](OCCCCO)O1 | . | i | -4 | 2 | 8 | 11 | -7.9 | 6.0 | -0.9
2 | Cc1ccc(Cl)cc1N=C(N)N=C(N)N | 0.67 | i | -1 | 3 | 17 | -5 | 0.2 | 1.9 | 1.7
3 | CCC(C)NC(=S)Nc1ccccc1 (stereo unspecified) | 0.68 | i | . | 4 | 8 | 19 | 0.5 | 2.8 | 7.6
4 | Cc1ccc2nnn(Cc3cccc(C(C)(C)C)c3O)c2c1 | 0.67 | i | 15 | -7 | -50 | -79 | -30 | -3.2 | 0.4
5 | CC(OC(=O)c1ccc(NC(N)=O)cc1)C(=O)Nc1ccc2c(c1)OCCO2 (stereo unspecified) | 0.69 | i | 4 | -3 | 6 | 11 | 4.7 | 1.3 | 4.5
6 | COc1ccc(NC(=O)Nc2ccc(F)c(Cl)c2)cc1 | 0.67 | . | 0 | 1 | . | . | . | -1.8 | -1.6
7 | Cc1cc(C(=O)COc2ncnc3sccc23)c(C)n1C | 0.73 | . | -7 | 8 | . | . | . | 0.1 | 3.6
8 | Cc1ccccc1NC(=O)Cc1nnc(N)s1 | 0.69 | i | . | -1 | 11 | 0 | 1.7 | 3.4 | 3.4
9 | O=C(CSc1nnc(CCCN2C(=O)c3cccc4cccc(c34)C2=O)n1-c1ccccc1)N1CCN(CCO)CC1 | 0.69 | . | 3 | -3 | . | . | . | -1.6 | -37
10 | Cc1sc(NC(=O)c2ccco2)c(C(c2ccccc2)N2CCC(C)CC2)c1C (stereo unspecified) | 0.73 | i | 25 | 2 | 3 | 8 | 31 | -0.6 | -20
11 | CC(=O)N1CCOc2ccc(S(=O)(=O)NCc3ccccc3Cl)cc21 | 0.7 | i | -4 | 10 | -3 | -3 | -5.0 | -0.6 | 2.2
12 | CC(=O)c1c(C)[nH]c(C(=O)OCC(=O)NNC(=O)c2ccc([N+](=O)[O-])cc2)c1C | 0.68 | . | -8 | -5 | 5 | 8 | 4.7 | -3.6 | 2.6
13 | Cc1nnc(SC(C)C(=O)N2CCc3ccccc32)s1 (stereo unspecified) | 0.71 | . | -1 | -6 | . | . | . | 0.4 | 0.2
14 | O=c1[nH]c2cccc(Cl)c2n(CCNc2ncc(C(F)(F)F)cc2Cl)c1=O | 0.74 | . | -1 | -11 | . | . | . | -3.4 | 3.7
15 | O=C(O)c1ccc(S(=O)(=O)N(Cc2ccccc2)Cc2ccccc2)cc1 | 0.68 | i | . | 3 | -10 | -22 | -3.1 | -3.4 | 0.3
16 | O=C1NC(=O)C2(COC(c3cccnc3)OC2)S1 (stereo unspecified) | 0.65 | i | 0 | 6 | 3 | -2 | -3.1 | -1.2 | 0.7
17 | Cc1cccc(NS(=O)(=O)c2ccc(C)c(C(=O)N(C)C3CCN(C)CC3)c2)c1 | 0.69 | i | . | -1 | 5 | 4 | 1.1 | -0.3 | 0.9
18 | Cc1nc2ccccc2c(=O)n1/N=C/c1cn(-c2ccccc2)nc1-c1cccs1 | . | . | -5 | 27 | . | . | . | -0.7 | .
19 | Cc1cc(Br)ccc1OCC(=O)NNC(=O)CCc1ccccc1 | 0.71 | i | . | -3 | 5 | 12 | 1.5 | -1.5 | 2.6
20 | C/C(=C\c1cccc(Cl)c1)C(=O)c1c(C)cc(C)[nH]c1=O | 0.65 | i | -5 | -9 | -2 | -5 | 1.8 | 4.5 | 2.1
21 | CC1CC(C)CN(C(=O)COC(=O)Cc2ccc(Cl)cc2)C1 (stereo unspecified) | 0.67 | i | -10 | -12 | 0 | 8 | -0.6 | -0.1 | -0.4
22 | CCOC(=O)C1CCCN(CC(=O)N(C)c2c(N)n(Cc3ccccc3)c(=O)[nH]c2=O)C1 (stereo unspecified) | 0.69 | i | -3 | -4 | 14 | 16 | 0.0 | -0.8 | 2.0
23 | COc1ccc(NC(=O)COC(=O)/C=C/c2ccccc2[N+](=O)[O-])cc1OC | 0.7 | i | -28 | 2 | . | . | . | 7.3 | 6.6
24 | CCN1CCN(c2ccc(S(=O)(=O)N3CCCCC3)cc2NC(=O)c2ccc(OC(F)F)cc2)CC1 | 0.65 | i | -4 | 9 | -2 | -1 | 3.9 | 1.4 | 3.4
25 | CN1CCN(C(=O)/C=C/c2ccc(Cl)cc2)CC1 | 0.69 | i | 11 | -1 | 2 | 2 | 1.2 | -0.3 | 4.1
26 | CCCN(C(=O)CCc1ccc(OC)cc1)c1c(N)n(Cc2ccccc2)c(=O)[nH]c1=O | 0.72 | i | 0 | -4 | 15 | 9 | -1.0 | 2.4 | 3.2
27 | CCC(=O)Nc1cccc(NC(=O)CN2CCN(c3ccccc3OC)CC2)c1 | 0.67 | . | . | 5 | . | . | . | 0.4 | 3.4
28 | CSCCC(c1nnnn1Cc1ccccc1)N1CCN(C/C=C/c2ccccc2)CC1 (stereo unspecified) | . | i | . | . | -30 | -40 | -14 | 1.8 | .
29 | Cc1cc(NC(=O)c2ccccc2)sc1C | 0.67 | . | 0 | 1 | . | . | . | -0.3 | 3.1
30 | CN(C(=O)COc1ccccc1C(=O)NCc1ccccc1)C1CCS(=O)(=O)C1 (stereo unspecified) | 0.63 | i | . | -10 | 2 | 0 | -3.1 | -4.0 | -1.2
31 | CC(C)(C)NS(=O)(=O)c1ccc(NC(=O)C2CCCO2)cc1 (stereo unspecified) | 0.69 | i | -6 | 2 | 21 | 21 | 1.3 | 2.4 | 3.6
32 | O=S(=O)(/N=C(/Nc1ccc(F)c(F)c1F)c1ccccc1)c1ccccc1 | 0.67 | . | -29 | -8 | . | . | . | 1.0 | 1.4
33 | Cc1nc(CCNC(=O)CC2C(=O)NCCN2Cc2ccccc2)nc2c1CCC2 (stereo unspecified) | 0.65 | i | -8 | 0 | 12 | 9 | 2.5 | -1.3 | -23
34 | CC(=O)c1c(C)[nH]c(C(=O)COc2cc(C)cc(C)c2)c1C | 0.74 | . | -15 | -6 | . | . | . | 0.0 | 3.3
35 | COc1cccc(NC(=O)[C@H](CC(C)C)NC(=O)[C@@H]2Cc3ccccc3CN2)c1 | 0.69 | i | -8 | 18 | 1 | 9 | -4.1 | -1.6 | 0.8
36 | CC(=O)c1c(C)[nH]c(C(=O)COC(=O)c2ccc3c(=O)n4c(nc3c2)CCC4)c1C | 0.73 | . | -9 | 0 | . | . | . | 1.4 | -53
37 | COC(=O)c1ccc(/C=N/NC(=O)C2CC(=O)N(c3ccc(OC)cc3)C2)cc1 (stereo unspecified) | . | i | -6 | -5 | 3 | 7 | 2.2 | 1.7 | .
38 | CC(C)C(=O)N1CCCC1(C)C(=O)Nc1ccc(F)cc1 (stereo unspecified) | . | i | . | . | 6 | 12 | -1.4 | -0.5 | .
39 | FC(F)(F)c1cccc(Cc2noc(CN3CCCCC3c3ccccn3)n2)c1 (stereo unspecified) | 0.73 | i | 5 | -1 | -33 | -33 | -4.6 | 0.8 | 1.7
40 | Cc1ccccc1NS(=O)(=O)c1cccc(C(=O)Nc2cccc(C(=O)O)c2)c1 | 0.71 | . | 3 | 7 | 16 | 2 | 2.4 | -3.7 | 5.6
41 | O=S(=O)(Cc1ccccc1Cl)N1CCN(Cc2ccc3c(c2)OCO3)CC1 | 0.7 | . | 0 | -22 | . | . | . | 12 | 1.5
42 | O=C(NCCCN1CCC(Cc2ccccc2)CC1)C1CCN(S(=O)(=O)N2CCC3(CC2)OCCO3)CC1 | 0.7 | i | -2 | -3 | -5 | -12 | -14 | -2.8 | 1.5
43 | CCOC(=O)Nc1ccc2c(c1)Cc1cc([N+](=O)[O-])ccc1-2 | 0.69 | i | . | -6 | -16 | -7 | 5.7 | 25 | 2.1
44 | Cc1cccc(C)c1N(CC(=O)N1CCCC1)S(C)(=O)=O | 0.67 | i | -4 | 6 | 7 | 7 | -4.2 | 0.8 | 3.9
45 | CCOc1ccccc1CN1CCN(CCCn2cccn2)CC1CCO (stereo unspecified) | 0.68 | i | -8 | -1 | 5 | 14 | -0.3 | 1.1 | -0.5
46 | COc1ccc(NC(=O)C(c2ccc(OC)cc2)N(C)C(=O)CNC(C)=O)cc1 (stereo unspecified) | 0.74 | . | 0 | 6 | . | . | . | 1.6 | 0.3
47 | COc1ccccc1NC(=O)c1ccc(NC(=O)COC(=O)c2ccc(O)cc2)cc1 | 0.66 | + | -1 | 10 | 1 | 7 | -0.4 | -4.4 | 1.5
48 | O=[N+]([O-])c1ccc(OCc2cn([C@@H](CO)c3ccccc3)nn2)c(Br)c1 | . | i | . | 0 | -4 | 7 | -6.3 | -3.6 | 1.3
49 | O=C(CN1C(=O)COc2ccccc21)NCCCN1CCCCC1 | 0.67 | i | 2 | -9 | 11 | 12 | 1.8 | -0.1 | -1.5
50 | O=C(O)CN1C(=O)/C(=C\c2cc(Br)ccc2OCc2ccccc2F)SC1=S | 0.65 | i | 18 | 16 | -35 | -52 | 1.9 | -3.0 | 24*
51 | Nc1cc2nsnc2cc1Br | . | . | -5 | 4 | . | . | . | -30 | .
52 | O=C(CN1C(=O)c2ccc([N+](=O)[O-])cc2C1=O)NCCC1=CCCCC1 | 0.7 | i | 1 | -4 | 8 | 14 | -2.6 | -1.9 | 3.2
53 | COc1ccc(N(CC(C)C)S(=O)(=O)c2nnc(NC(=O)CC(C)C)s2)cc1 | 0.69 | i | -8 | -9 | -2 | 6 | -6.6 | 4.5 | 3.1
54 | Nc1nc(SCc2ccccc2)ns1 | 0.65 | . | 0 | 6 | . | . | . | 1.4 | 5.7
55 | O=C(O)c1ccc(C(=O)Nc2ccc(F)cc2)cc1 | . | i | 5 | -7 | 2 | 16 | -0.2 | -3.9 | 2.1
56 | COc1ccc(CN2CCNC(=O)C2CC(=O)N(C)Cc2ccon2)c(F)c1 (stereo unspecified) | 0.66 | i | -24 | 1 | 7 | 11 | -4.1 | -1.0 | -2.4
57 | O=C(O)c1ccccc1C(=O)c1ccc2oc(=O)[nH]c2c1 | 0.72 | i | . | 5 | 7 | 19 | -3.0 | -5.4 | 7.4
58 | CC1CC(C)CN(CCCNS(=O)(=O)c2ccc3c(c2)oc(=O)n3C)C1 (stereo unspecified) | 0.71 | i | -13 | -56 | 9 | 15 | -0.1 | 9.7 | -1.2
59 | CCOC(=O)C1=C(O)C(=O)N(Cc2cccnc2)C1c1ccc(OC)cc1 (stereo unspecified) | 0.72 | i | -6 | -5 | 10 | 9 | -4.0 | 1.9 | 5.7
60 | CC(C)NC(=O)C1(C)CCN1C/C=C/c1ccccc1 (stereo unspecified) | . | i | . | . | 8 | 17 | -1.3 | 3.2 | .
61 | Cc1nc2c(OCCOc3ccccc3)cccn2c1N(C)C(=O)CCC1CCCC1 | . | i | . | . | -6 | -25 | 2.6 | -0.5 | .

A different layout for part of the listing above.
#15 O=C(O)c1ccc(S(=O)(=O)N(Cc2ccccc2)Cc2ccccc2)cc1
#16 O=C1NC(=O)C2(COC(c3cccnc3)OC2)S1 (stereo unspecified)
#28 CSCCC(c1nnnn1Cc1ccccc1)N1CCN(C/C=C/c2ccccc2)CC1 (stereo unspecified)

assay / compound | 15 | 16 | 28
E coli growth | 0.68 | 0.65 | .
FGF22 binding | i | i | i
ALR H2O2 inh | . | 0 | .
B2AR ag | 3 | 6 | .
Ecoli rRNA inh | -10 | 3 | -30
Ecoli rRNA inh OD600 | -22 | -2 | -40
Ecoli rRNA inh RFP | -3.1 | -3.1 | -14
HNF4A DNA FP | -3.4 | -1.2 | 1.8
UCH37 inh | 0.3 | 0.7 | .
